Screening data as filed in PubChem BioAssay.
Arbovirus anti: arbovirus infection inhibition. arbovirus infection cell-based antiviral screen. 0.37% of 200,000 active. inhibition, % at 10 µM;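 active means inhibition from about 30%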;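 further: bluetongue infection of BSR cells; cell survival read as ATP light after 72 h; 0% = infected wells without compound and 100% = uninfected wells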
Mtb growth: M. tuberculosis H37Rv growth inhibitors, H37Rv strain (AID 1626). M. tuberculosis H37Rv growth inhibition; higher % means a stronger effect. inhibition, % at 10 µM, or IC50 in µM where a hit was titrated. 0.95% of 220,000 active;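 active means confirmed in a dose series; inconclusive means inhibition above 80% but not taken into the dose series; inactive means below 80% or under 30% at every dose of the series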;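 further: bacteria incubated seven days before Alamar blue readout; 0% = bacteria only wells and 100% = bacteria with antibiotic wells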
Mtb betalactam: beta-lactam sensitization of Mtb H37Rv | inhibition, % at 25 µM | 0.27% of 330,000 active | M. tuberculosis H37Rv growth with meropenem, percent inhibition; hits of this screen are not shown here;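 active means about 74% or more and at least 40 points above the plate without the antibiotic, then above 30% in a dose series; inconclusive means first-round hits that could not be retested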;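 further: growth measured after seven days incubation then overnight dye step; 0% = bacteria only wells and 100% = bacteria with antibiotic; twin plates without the antibiotic show which effects depend on it; some results filed as inactive read as strong as hits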
RecA intein inh: Mtb RecA intein splicing inhibition; cell-free RecA intein splicing, fluorescence; 0.75% of 290,000 active; inhibition, %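 (about 9 µM by stock and volumes)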; P9WHJ3; in the data active means inhibition above about 30%; inconclusive means no clear call, values can overlap the other calls;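 further: 0% = vehicle wells and 100% = reference inhibitor control wells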
Target sequence (P9WHJ3 whole entry, looked up): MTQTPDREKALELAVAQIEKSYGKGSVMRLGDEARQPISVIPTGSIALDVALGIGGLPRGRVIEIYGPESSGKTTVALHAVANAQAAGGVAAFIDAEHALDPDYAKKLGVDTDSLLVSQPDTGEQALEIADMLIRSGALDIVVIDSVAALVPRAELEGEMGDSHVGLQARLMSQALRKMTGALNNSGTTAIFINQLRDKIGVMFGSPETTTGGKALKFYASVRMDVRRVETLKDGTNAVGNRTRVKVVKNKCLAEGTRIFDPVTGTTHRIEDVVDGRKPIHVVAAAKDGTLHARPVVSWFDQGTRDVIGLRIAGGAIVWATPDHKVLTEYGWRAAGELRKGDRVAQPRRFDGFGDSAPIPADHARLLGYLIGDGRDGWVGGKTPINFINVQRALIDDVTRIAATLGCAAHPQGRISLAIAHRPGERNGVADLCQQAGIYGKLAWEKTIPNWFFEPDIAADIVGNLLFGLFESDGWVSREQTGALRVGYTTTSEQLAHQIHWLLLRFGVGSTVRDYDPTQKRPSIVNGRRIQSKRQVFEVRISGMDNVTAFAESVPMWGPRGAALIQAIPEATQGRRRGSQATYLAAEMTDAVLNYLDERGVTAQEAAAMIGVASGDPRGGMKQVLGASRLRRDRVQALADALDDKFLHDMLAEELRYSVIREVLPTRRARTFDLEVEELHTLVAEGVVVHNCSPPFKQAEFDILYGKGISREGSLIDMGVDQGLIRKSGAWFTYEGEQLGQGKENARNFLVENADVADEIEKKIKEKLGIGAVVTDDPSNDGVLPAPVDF
YopH PTP inh: YopH (Yersinia) phosphatase inhibition. inhibition, %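 (about 10 µM by stock and volumes)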. 0.16% of 140,000 active. fluorescence Ex485/Em525. AID 898;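 active means inhibition of 50% or more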;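 further: controls were vehicle for no effect and minimum signal wells for full effect; inactives centre near -20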
Arbovirus anti repeat: second read-out of Arbovirus anti, no call of its own (marks repeat the call); inhibition, %; measured here: 10K subset replicate screen; many hits read low in the repeat;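 first of two repeat runs on a subset; 0% = infected and 100% = uninfected wells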
* = called active by the depositor; ? = inconclusive; . = not tested or not shown.

SMILES	Arbovirus anti	Mtb growth	Mtb betalactam	RecA intein inh	YopH PTP inh	others
CCCC(=O)c1c[nH]c(C(=O)NCCc2ccccn2)c1	3	-5%	-11	1.4	-21
CC1(C(=O)N/N=C/c2ccccc2)CC1(Br)Br (centres undefined)	1	-2%	-6	-3.5	.
C[C@@]12CC(=O)NC1N(C(=O)c1cccc(C(F)(F)F)c1)C(c1ccccc1O)C2 (some centres undefined)	9	-7%	-5	4.2	-10
N#Cc1c(NC(=O)CSc2nnnn2C2CCCCC2)sc2c1CCCC2	2	-2%	0	-2.6	-35
O=C(COc1ccc(Cl)cc1)Nc1nnc(-c2ccc3c(c2)CCCC3)o1	8	54µM*	49	-0.6	-20	Arbovirus anti repeat=-10
CCc1nc(SCC(=O)Nc2nnc(CC(C)C)s2)n[nH]1	6	-5%	3	-0.1	.
O=C(Nc1cccc(-c2cn3ccsc3n2)c1)c1ccccc1	-7	1%	2	-16	-30
CC(C)[C@@H](C(=O)OCC(=O)Nc1ccc2c(c1)OCO2)N1C(=O)c2ccccc2C1=O	-5	7%	22	3.4	-14
O=C1NCCN1Cc1ccc(Cl)cc1	6	-1%	-2	1.1	.
O=C(CCC(=O)Nc1ccc(F)cc1)N/N=C/c1ccc(O)cc1	.	.	7	-0.1	.
C=CCC(C)(NCc1ccccc1)c1ccco1 (centres undefined)	7	-10%	?	-1.2	-2
Cc1cc(C)c(S(C)(=O)=O)c(Oc2ccc(F)cc2)n1	2	.	-8	-1.5	-38
CCOc1ncccc1C(=O)Nc1ccc(S(=O)(=O)N2CCCC2)cc1	-13	-8%	1	1.2	.
O=C1CCCc2nc(NCc3ccco3)ncc21	-5	1%	-4	-3.0	-1
Cc1sc(NC(=O)C2CSC3(C)CCC(=O)N23)nc1-c1ccc(F)cc1 (centres undefined)	.	.	4	1.0	.
Cc1ccc(CNC(=O)c2cc3c(-c4ccc(Cl)cc4)nn(C)c3s2)o1	6	2%	8	8.5	-16	Arbovirus anti repeat=3
CC(C)(C)OC(=O)N1CCCC1C(=O)O (centres undefined)	4	-2%	-16	.	14
COc1ccc(NC(=O)c2ccc(-n3cccn3)c([N+](=O)[O-])c2)cc1	7	2%	-10	-0.1	.
CC(=O)NCCCc1nc2ccccc2n1Cc1ccccc1F	.	.	-8	0.5	.
CCCc1cc(CNC(=O)C2CCC(=O)N(CCc3cccc(F)c3)C2)on1 (centres undefined)	.	.	0	1.1	.
COc1ccccc1-n1cnc(N)c1C(C)=O	1	-2%	-7	-0.4	9
CCOC(=O)c1cnn(-c2ccc(C(C)C)cc2)c1NC(=O)C1CCC1	4	-8%	-6	1.1	-24
Cc1nc2ccc(NC(=S)NC(C)C)cc2nc1C	0	0%	4	-4.6	1
CCOC(=O)c1c(NC(=O)COC(=O)c2ccccn2)sc(C(=O)N(C)C)c1C	.	.	-3	1.0	.
CN(Cc1cccs1)c1nc(-c2cccnc2)nc2ccccc12	-21	5%	72	25	.
COc1ccc(OC)c(S(=O)(=O)Nc2cccc3c(O)cccc23)c1	.	.	-12	-3.9	.
COc1cc(/C=N/NC(N)=S)ccc1OCC(=O)Nc1ccc(C)cc1	-5	-4%	73	0.8	-38
O=C1C(=O)N(CCN2CCOCC2)C(c2cccnc2)/C1=C(/O)c1ccccc1 (centres undefined)	4	3%	2	-4.3	.
COc1ccc(CC(=O)OCC(=O)NCCc2ccccc2)cc1OC	3	-6%	5	2.7	-3
O=c1cccc2n1CC1CC2CN(S(=O)(=O)c2ccccc2)C1 (centres undefined)	4	-9%	-6	19	-3
O=C(O)C1CCN(C(=O)CSc2nc3ccccc3c(=O)n2Cc2ccccc2)CC1	.	.	-7	-0.6	.
O=c1c2ccccc2nc(/C=C/c2cccnc2)n1CCc1ccccc1	.	13%	0	43*	.
O=C(NC12CC3CC(CC(C3)C1)C2)c1cccc(OC(F)F)c1	.	.	1	3.7	.
O=C(O)c1ccc(/C=N/NC(=O)c2ccc(CN3c4cccc5cccc(c45)S3(=O)=O)cc2)cc1	.	-9%	-4	5.2	.
O=C(Cc1ccccc1)NN1C(=O)C2C3C=CC(C4CC34)C2C1=O (centres undefined)	-2	2%	6	-0.2	-36
CCCOC(=O)c1ccc(NC(=O)c2ccccc2[N+](=O)[O-])cc1	-14	41%	60	-0.3	.
O=S(=O)(c1cccs1)N1CCCc2ccccc21	8	-2%	-2	-0.8	-6	Arbovirus anti repeat=-6
COCCNC(=O)c1ccc2c(c1)CCN2S(C)(=O)=O	2	1%	-1	-1.8	.
C#CCN(Cc1ccco1)C(=O)c1ccc(OC2CCN(Cc3ccccn3)CC2)cc1	.	.	-8	0.7	.
COc1ccccc1CNC(=O)CSCc1cnn(-c2ccccc2)c1-n1cccc1	-6	0%	2	7.9	0
COc1ccc(-n2cc(-c3ccc(Br)cc3)[nH]c2=S)cc1	-5	3%	7	1.8	.
CCCC(=O)NC(c1ccco1)c1c(O)ccc2ccccc12 (centres undefined)	2	-11%	?	-4.3	-43
COc1cc(C)ccc1OCCOCCOc1cccc2ccc(C)nc12	5	7%	-3	1.1	.
CCOc1ccc(C(=O)NCC(=O)NCC(c2ccco2)N2CCCCC2)cc1OCC (centres undefined)	.	.	0	-0.9	.
COc1ccc(NC(=O)C(=O)N2N=C(C(C)C)CC2(O)C(F)(F)F)cc1 (centres undefined)	10	-9%	-2	3.3	-14
COc1ccc(C(C)(C)C)cc1NS(=O)(=O)c1cccc2cccnc12	.	.	1	4.4	.
COc1cc(C(=O)Nc2ccc(S(=O)(=O)Nc3nccc(C)n3)cc2)cc(OC)c1OC	4	-10%	26	1.0	-38
CCN(c1ccccc1)S(=O)(=O)c1ccc(Cl)c(C(=O)NCCc2ccc(OC)cc2)c1	2	3%	1	2.2	-2
O=C(C1CCN(C2CCN(Cc3ccc4c(c3)CCO4)CC2)CC1)N1CCCC1	-8	-3%	2	1.6	.
Cc1nc2ccccc2c(=O)n1-c1ccc(F)cc1F	.	-8%	-6	-4.8	.
O=C1CN(C(=O)c2ccc3nc(Cc4cccc(Cl)c4)oc3c2)CCN1	.	.	-11	4.1	.
O=C(c1ccc(CS(=O)c2ccc(F)cc2)o1)N1CCN(C2CCCCC2)CC1 (centres undefined)	.	.	-4	-1.6	.
Cc1nc2nc(N)nn2c(C)c1C/C=C/c1ccccc1	9	-9%	-9	0.6	.
COc1ccccc1Cc1noc(COc2cccc(C)c2C)n1	15	-1%	8	6.6	-4
O=C(NC1CCCCC1)c1cccc(S(=O)(=O)N2CCOCC2)c1	11	1%	-6	2.0	-45
Cc1cc(Cl)ccc1Nc1ncccc1C(N)=O	-14	5%	-1	3.8	-35
COC(=O)c1ccc(CSc2nc3c(c(=O)n2-c2ccc(Br)cc2)SCC3)o1	4	14%	46	13	-8	Arbovirus anti repeat=-2
COc1ccc(C2=Nn3c(C)nnc3SC2)cc1	.	.	5	-2.7	.
CC(C)(C)c1cc[n+](/C(C(=S)Nc2ccccc2F)=C(/[O-])c2ccc3c(c2)OCCO3)cc1	0	10%	15	6.6	.
O=C(/C=C/c1cccs1)Nc1nccs1	-10	-4%	-7	-5.6	.

Structural class, those above containing an NH in an aromatic ring (3)
SMILES	Arbovirus anti	Mtb growth	Mtb betalactam	RecA intein inh	YopH PTP inh	others
CCCC(=O)c1c[nH]c(C(=O)NCCc2ccccn2)c1	3	-5%	-11	1.4	-21
CCc1nc(SCC(=O)Nc2nnc(CC(C)C)s2)n[nH]1	6	-5%	3	-0.1	.
COc1ccc(-n2cc(-c3ccc(Br)cc3)[nH]c2=S)cc1	-5	3%	7	1.8	.

The listing continues:
SMILES	Arbovirus anti	Mtb growth	Mtb betalactam	RecA intein inh	YopH PTP inh	others
CSc1ccc(C#N)cc1NC(=O)c1ccc(Cl)cc1Cl	-4	6%	17	0.6	-52
O=C(O)c1ccccc1OCc1ccccc1Cl	.	11%	3	-5.0	.
O=[N+]([O-])c1ccc2[nH]c(O)c(N=NC3CCS(=O)(=O)C3)c2c1 (centres undefined)	.	-7%	5	-2.3	.
COc1ccc(-n2c(CN3CCC(C(N)=O)CC3)nc3ccc([N+](=O)[O-])cc3c2=O)c(OC)c1	-7	3%	-5	-3.7	.
CC(=O)Nc1scc(C)c1-c1nc2ccccc2s1	.	10%	.	-15	.
COC(=O)Nc1snnc1C	6	-3%	-13	1.4	-31
Cc1ccc(N(C)C(=O)CCS(=O)(=O)c2ccc3c(c2)oc(=O)n3C)cc1	.	.	3	-2.6	.
C[C@H]1CCC[C@H](O)CCCCCc2cc(O)cc(O)c2C(=O)O1	25	1%	0	-3.5	-43
CSc1ncccc1C(=O)Nc1ccc(S(=O)(=O)NC2=NCCCCC2)cc1	2	0%	-1	1.0	.
Cn1cc(/C=N\NC(=O)C2COc3ccccc3O2)c2ccccc21 (centres undefined)	-10	12%	9	0.8	-19
COc1ccccc1CC(Cc1nc2ccccc2[nH]1)c1nc2ccccc2[nH]1 (centres undefined)	-15	2%	4	30	.
Cc1ccc(N2CC(C(=O)Nc3ccc(N(C)C)cc3)CC2=O)cc1C (centres undefined)	-9	-22%	1	1.4	-15
O=C(Cc1ccccc1)N/N=C/c1cc(Br)c(Br)o1	2	-3%	1	-1.2	-25
CC(=O)c1ccc(NC(=O)CN2C(=O)COc3ccc(Cl)cc32)cc1	-1	1%	-8	-0.7	-6	Arbovirus anti repeat=1
COc1ccccc1OCC(=O)Nc1ccc(S(=O)(=O)N(C)c2ccccc2)cc1	.	.	-4	6.7	.

Reprinted from the entries so far for reference:
SMILES	Arbovirus anti	Mtb growth	Mtb betalactam	RecA intein inh	YopH PTP inh	others
CSc1ccc(C#N)cc1NC(=O)c1ccc(Cl)cc1Cl	-4	6%	17	0.6	-52
O=C(O)c1ccccc1OCc1ccccc1Cl	.	11%	3	-5.0	.
O=[N+]([O-])c1ccc2[nH]c(O)c(N=NC3CCS(=O)(=O)C3)c2c1 (centres undefined)	.	-7%	5	-2.3	.
COc1ccc(-n2c(CN3CCC(C(N)=O)CC3)nc3ccc([N+](=O)[O-])cc3c2=O)c(OC)c1	-7	3%	-5	-3.7	.
CC(=O)Nc1scc(C)c1-c1nc2ccccc2s1	.	10%	.	-15	.
COC(=O)Nc1snnc1C	6	-3%	-13	1.4	-31
Cc1ccc(N(C)C(=O)CCS(=O)(=O)c2ccc3c(c2)oc(=O)n3C)cc1	.	.	3	-2.6	.

(more compounds)
SMILES	Arbovirus anti	Mtb growth	Mtb betalactam	RecA intein inh	YopH PTP inh	others
S=C(NC1CCCCC1)N(CCc1nc2ccccc2[nH]1)C1CCCC1	-20	-1%	0	7.0	4
Cn1cc(CN2CCCC(CO)(Cc3cccc(Cl)c3)C2)cn1 (centres undefined)	-10	5%	2	-0.2	.
Cc1cc(S(=O)(=O)N2CCOCC2)ccc1OCC(=O)Nc1ccc(F)cc1	.	.	2	0.9	.
O=C(COc1ccc2ccccc2c1)Nc1cccc2c1C(=O)NC2=O	-9	-9%	5	-18	.
CC/C(=N\N1CCCCCC1)c1c(O)n(-c2ccccc2C)c(=O)[nH]c1=O	9	5%	-3	0.8	-23
O=C(Nc1sc2c(c1C(=O)O)CCCC2)c1cccc(Cl)c1	.	.	7	3.6	.
COc1ccc([C@H]2/C=C\CN(S(=O)(=O)/C=C/c3ccccc3)[C@@H](C)C(=O)N2Cc2ccc(F)cc2)cc1	.	2%	-10	4.2	.
CCN(c1ccccc1)S(=O)(=O)c1ccc(Cl)c(C(=O)OCC(=O)NC(=O)C(C)C)c1	4	-9%	-10	3.5	.
Oc1ccc(Br)cc1CNn1cnnc1	8	-25%	-3	1.6	-18
COCc1[nH]nc2c1C(c1ccsc1)C(C#N)=C(N)O2 (centres undefined)	-3	1%	1	64*	-15
COc1cc(NC(=O)CCc2nc(-c3cccs3)no2)cc(OC)c1OC	-4	-17%	-7	1.1	1
Nc1cc(=O)[nH]c(SC/C=C/c2ccccc2)n1	-6	-10%	-16	1.5	-17
CSCC[C@H](NC(=O)N1CCn2c1nc1ccccc12)C(=O)N[C@@H](C(=O)O)c1ccccc1	.	.	3	2.4	.
Cc1c(C)n(CC(O)CN2CCCCCC2)c2ccccc12 (centres undefined)	4	-2%	-5	1.3	-21	Arbovirus anti repeat=-3
O=C(/C=C/c1ccc([N+](=O)[O-])o1)NNC(=O)c1ccc(F)cc1	.	.	100	0.6	.
N/C(=N\OC(=O)CSc1ccccc1)c1cccc([N+](=O)[O-])c1	0	-1%	76	4.6	-26
CC1(c2ccccc2)CC(C)(C)n2c(O)c(C3=NC(=S)NC3=O)c3cccc1c32 (centres undefined)	.	6%	-3	-7.4	.
O=C(NN1C(=O)C2C3c4ccccc4C(c4ccccc43)C2C1=O)C1CC1 (centres undefined)	-1	-10%	3	5.7	.
C=CCn1c(SCC(=O)c2c(N)n(C)c(=O)n(C)c2=O)nc2sc(CC)cc2c1=O	2	.	0	-0.5	-34
Nc1ccc(NC(=O)c2cccs2)cc1	-9	-14%	-2	-2.7	.

This is a subset; count on the stated rates, not on these rows.
